Bioassay records as filed in PubChem BioAssay.
ClpP mod = qHTS Assay for Activators of ClpP; 1.9% of 340,000 active; ATP-dependent Clp protease proteolytic subunit (Bacillus subtilis (strain 168)), P80244; AID 651965, 2013; Potency, µM (titrated, usually from 57.5 µM), for inactives: at the highest dose activity change, negative = active; purified B. subtilis ClpP, FRET peptide cleavage, 20 min; active = well fitted falling curve with a large enough effect; inconclusive = small, poorly fitted or top-dose-only effect; inactive = no such curve, though single readings can be large or run the other way; further: potency means the concentration at half of the fitted maximal effect; the source files actives as falling curves though it sought activators and does not explain the sign; nearly all actives have a fitted effect of over 65% in size; many hits overshoot -100%
Target sequence (P80244 whole entry, looked up): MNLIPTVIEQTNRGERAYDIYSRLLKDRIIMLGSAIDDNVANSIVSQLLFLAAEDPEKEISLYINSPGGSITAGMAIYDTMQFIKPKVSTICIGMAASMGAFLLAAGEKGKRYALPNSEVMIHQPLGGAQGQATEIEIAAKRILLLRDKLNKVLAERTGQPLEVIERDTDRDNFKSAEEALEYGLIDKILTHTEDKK
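Purified B. subtilis ClpP, 10 microg/mL final in Tris/HCl pH8 with KCl, BSA, glycerol and Tween-20, cleaved an Abz/nitrotyrosine-quenched decapeptide. Fluorescence (ex 320, em 430) was read at 0 and 20 min at room temperature. Delta was normalized to 5.8 microM ADEP and DMSO/no-enzyme controls.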
CtBP-E1A inh = qHTS Assay for Inhibitors of the CtBP/E1A Interaction; CtBP / adenovirus E1A interaction (AlphaScreen); AlphaScreen GST-E1A/His-CtBP binding, 1536-well; hits give low values; control for the full effect not named in the record; activity change, % (concentration not given with the values); 0.49% of 340,000 active; AID 651724, 2012; in the data active means activity change below about -65%; inconclusive means about -30% to -65%; inactive means above about -30%; further: on the % scale 0 is the no-effect control and ±100 the full control effect
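AlphaScreen with 125 nM GST-E1A and 125 nM His-CtBP (5X stocks) in Tris pH 8.0, 300 mM NaCl, BSA, Tween 20, TCEP. Compounds preincubated 2 h at 37 deg C, then glutathione donor/nickel acceptor beads added for 1 h at 37 deg C in dark.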
* marks the source's active call; other numbers are inactive results; ? = inconclusive. Only part of the results is shown; rates above refer to the full screens.

Second line of a record: ClpP mod, CtBP-E1A inh
1. CCOC(=O)[C@]12CCCC=C1N(CCc1ccc(OC)c(OC)c1)C(=O)[C@H](CC(=O)NCc1ccccc1)C2
 : 0.6%, -2
2. O=C(NCc1ccccc1)c1cc(C2COCCN2C(=O)c2ccc(Cl)cc2)on1 (stereo unspecified)
 : 1.0%, 0
3. CC(C)C[C@@H]1COc2cccc(N3CCN(Cc4ccccc4F)CC3)c2S(=O)(=O)N1
 : -3.1%, -3
4. COC(=O)C1(C(=O)OC)c2ncccc2N(S(=O)(=O)c2ccc(C)cc2)C1CC(=O)c1ccccc1 (stereo unspecified)
 : 1.4%, -2
5. CC1(C(=O)Nc2cnc3ccccc3c2)CCN1Cc1ccc2c(c1)OCCO2 (stereo unspecified)
 : -7.2%, 1
6. CC(C)(C)OC(=O)Nc1ccccc1-n1nnnc1C(C(=O)c1ccc(F)cc1)N1CCN(c2ccccn2)CC1 (stereo unspecified)
 : -28%, 3
7. COc1ccc(-c2nc(NCCN(C)C)nc3ccsc23)c(C)c1
 : 4.6%, 15
8. COc1ccc(CNC(=O)c2cn(Cc3ccccc3OC)c(=O)s2)cc1
 : -4.3%, -19
9. COc1cc(C)ccc1S(=O)(=O)NC(=O)C1(C)CCN1C(=O)c1ccc(C(F)(F)F)nc1C (stereo unspecified)
 : -0.4%, 6
10. CN(Cc1ccccc1)C(=O)c1ccc(Nc2nc(CN)cs2)nc1
 : -6.1%, ?
11. COc1ccc(-c2csc(C(C)(O)c3ccccc3)n2)cc1 (stereo unspecified)
 : -17%, -5
12. CCOc1cc(OCC)cc(C(=O)NCCN2CCC(n3c(=O)[nH]c4ccccc43)CC2)c1
 : -8.0%, -20
13. O=C(Nc1cccc(Cl)c1Cl)c1csc([C@@H]2O[C@H](CO)[C@@H](O)[C@H]2O)n1
 : 1.2%, -3
14. N#Cc1ccc(C(C(=O)NCc2ccccc2)n2c(=O)c(-c3cc4ccccc4[nH]3)nc3ccccc32)cc1 (stereo unspecified)
 : 3.9%, -5
15. CC(=O)Nc1ccc(-c2ccnc3c2CC(C)(C(=O)NCc2ccc(N(C)C)cc2)O3)cc1 (stereo unspecified)
 : ?, 0
16. COc1ccc(OC)c(CN2C(=O)c3ccccc3C2c2nnnn2C(C)C)c1 (stereo unspecified)
 : 0.2%, 10
17. CCOc1ccc(Cl)cc1-c1cc(C(=O)NCc2cccs2)[nH]n1
 : 0.1%, 2
18. Cc1ccc(F)c(S(=O)(=O)NC(=O)C2(C)CCN2C(=O)c2ccc(C3CCCCC3)cc2)c1 (stereo unspecified)
 : 1.5%, 33
19. CCOC(=O)C1=CCC(c2cc3ccc(OC)cc3n2C(=O)OC(C)(C)C)NC1 (stereo unspecified)
 : -12%, -20
20. CCCCCCN1CCN(C2CN(Cc3cn(Cc4cccc(C(F)(F)F)c4)nn3)S(=O)(=O)C2)CC1 (stereo unspecified)
 : 1.9%, 0
21. CCN(CC)C(=O)c1cccc(-c2csc(C(C)(NC(C)=O)c3ccc(OC)cc3)n2)c1 (stereo unspecified)
 : 0.7%, 5
22. COc1ccc(NC(=O)C(c2ccc(OC)cc2)n2c(=O)c(-c3cc4ccccc4[nH]3)nc3ccccc32)cc1 (stereo unspecified)
 : 19%, 22
23. COCCNc1nc(NCc2ccccc2OC)c2sccc2n1
 : -16%, -2
24. COc1ccc([C@@H]2C[C@H]3[C@@H](CN2S(=O)(=O)c2ccccc2)C(=O)C[C@@H](c2cccc(Cl)c2)N3S(=O)(=O)c2ccc(C)cc2)cc1
 : 1.0%, 1
25. Cc1ccc(S(=O)(=O)N2C[C@H]3C(=O)C[C@@H](c4ccccc4F)N(S(=O)(=O)c4ccc(C)cc4)[C@H]3C[C@H]2c2ccccc2)cc1
 : -4.4%, -23
26. Cc1cc2nc(C(C)(C)C)c(Cc3ccccc3)n2c(C)c1Br
 : -7.5%, 12
27. CC(=O)N1CCCC(C)(C(=O)N(C)Cc2cccc3ccccc23)C1 (stereo unspecified)
 : 0.0%, 1
28. Cc1ccc(CN2CC(N3CCN(CCO)CC3)CS2(=O)=O)cc1 (stereo unspecified)
 : -8.2%, 0
29. COc1ccc([C@H]2CC(=O)C[C@@H](CCn3cccn3)O2)cc1
 : 0.2%, 0
30. O=C1O[C@@H](c2ccccc2)C[C@@H](O)[C@H](O)CCCc2ccccc21
 : -3.0%, 5
31. COc1ccc(C2=Nc3ccccc3NC(=O)C2N(C(=O)c2ccnc3ccccc23)c2ccccc2)cc1 (stereo unspecified)
 : -5.8%, -11
32. C[C@H](NC(=O)[C@@H]1CCCN1C(=O)[C@@H]1CCCN1)c1ccccc1
 : -1.6%, -18
33. CCc1nc2ccc(C(=O)N3CCN(C(=O)c4ccco4)CC3)cn2c1N(C=O)Cc1ccc(OC)cc1
 : -7.0%, -13
34. C[C@H]1COc2cccc(N3CCC[C@H]3CO)c2S(=O)(=O)N1
 : 1.2%, -1
35. COc1ccccc1N=NNc1ccc(S(=O)(=O)NC(C)=O)cc1
 : -0.2%, -20
36. Clc1cccc(CNc2ccn3nc(-c4ccc(OCCN5CCOCC5)cc4)cc3n2)c1
 : 4.7%, -11
37. CC(C)(C)c1ccc(C(=O)N2CCC2(C)C(=O)NCc2cccc3ccccc23)cc1 (stereo unspecified)
 : -3.5%, -3
38. CCOc1ccc(CCN2C(=O)C(=O)N([C@@H](Cc3ccccc3)CN3CCC[C@H]3CN3C(=O)C(=O)NC[C@@H]3Cc3ccc(O)cc3)C[C@@H]2CC(C)C)cc1
 : 0.3%, 0
39. CC1Cn2c(Cc3ccccc3)nnc2S1 (stereo unspecified)
 : 0.1%, 9
40. CC(=O)OC[C@@H]1CN(Cc2ccccc2)C[C@H](n2cnc3c(NC4CCC4)ncnc32)O1
 : -0.1%, -1
41. COCCNC(=O)C1(C)CCCN(Cc2sc(C)nc2C)C1 (stereo unspecified)
 : -2.1%, 4
42. CC1(C(=O)NS(=O)(=O)c2cccc(Cl)c2)CCN1C(=O)C1CC1 (stereo unspecified)
 : 1.6%, -3
43. COc1ccc(C(=O)C(=O)N2CCC(c3ccccc3)CC2)cn1
 : -5.4%, -17
44. CC1(C(=O)NS(=O)(=O)c2ccc(Cl)cc2)CCN1C(=O)C/C=C/c1ccccc1 (stereo unspecified)
 : 2.1%, 37
45. COc1ccc(C(=O)NCCNc2nc3cc(C)cc(C)c3cc2C#N)cc1
 : ?, 5
46. COc1ccc(-c2nc3ccc(C)cn3c2Cc2ccccc2)cc1OC
 : 4.1%, ?
47. O=C(NC1CC1)c1ccc2nc([C@H]3C[C@H](O)[C@@H](CO)O3)[nH]c2c1
 : -1.2%, 4
48. O=c1c(-c2cccs2)nc2ccccc2n1C(CCc1ccccc1)c1nc2ccccc2[nH]1 (stereo unspecified)
 : -5.4%, 9
49. COC(=O)c1cc(=O)nc(NN=C2CCCCC2)s1
 : 1.9%, -1
50. COc1cccc(CNc2nc3cc(-c4ccccc4CO)sc3c(=O)n2C)c1
 : ?, -7
51. COc1cccc(S(=O)(=O)Nc2ccc3c(c2)[C@@H]2C[C@@H](CC(=O)NCc4ccc(Cl)cc4)O[C@@H](CO)[C@@H]2O3)c1
 : 0.6%, 25
52. CCCCOc1ccc(S(=O)(=O)NC(=O)C2(C)CCN2C(=O)Cc2ccccc2Cl)cc1 (stereo unspecified)
 : 0.9%, 4
53. O=C(NC1CCCCC1)C(c1ccncc1)n1c(=O)c(-c2ccccc2)nc2ccccc21 (stereo unspecified)
 : 4.5%, -11
54. COc1ccc(C(=O)N2CCC2(C)C(=O)O)cc1F (stereo unspecified)
 : -3.2%, -4
55. COc1ccc(C)cc1-n1nnnc1SCc1nc(N)nc(N(C)C)n1
 : -3.1%, -26
56. COCCNC(=O)C1CCCN(C(=O)c2cc(C)n(C(C)(C)C)n2)CC1 (stereo unspecified)
 : 0.6%, 8
57. CCOC(=O)[C@]12CCCC=C1N(CCC1=CCCCC1)C(=O)[C@H](CC(=O)NCC13CC4CC(CC(C4)C1)C3)C2
 : -1.6%, 0
58. CC1(Cc2cccc(C(N)=O)c2)C(=O)Nc2c(Cl)cccc21 (stereo unspecified)
 : -6.1%, 3
59. COc1ccc(-c2c(Sc3ccccc3)c3cc(-c4ccc5c(c4)OCO5)ccc3n2C)cc1
 : 9.1%, 1
60. CC(=O)Nc1cc(-c2cccc(C(=O)N(C)C)c2)cn2c(-c3cccc(C(F)(F)F)c3)cnc12
 : 1.7%, -9

Random excerpt: two records from the list
Second line of a record: ClpP mod, CtBP-E1A inh
3. CC(C)C[C@@H]1COc2cccc(N3CCN(Cc4ccccc4F)CC3)c2S(=O)(=O)N1
 : -3.1%, -3
43. COc1ccc(C(=O)C(=O)N2CCC(c3ccccc3)CC2)cn1
 : -5.4%, -17

(list continues)
Second line of a record: ClpP mod, CtBP-E1A inh
61. CCOC1=C2CN(S(=O)(=O)c3ccc(C)cc3)[C@H](c3cccs3)C[C@H]2n2c(=O)n(-c3ccccc3)c(=O)n2C1
 : -0.6%, -2
62. CC1(C(=O)NS(C)(=O)=O)CCN1C(=O)C/C=C/c1ccccc1 (stereo unspecified)
 : 1.0%, 14
63. CC(C)(C)OC(=O)N1CCCN(C(c2cc3ccccc3o2)c2nnnn2C(C)(C)C)CC1 (stereo unspecified)
 : 0.6%, 0
64. CC(C)c1ccc(NC(=O)C2(C)Cc3c(-c4cccc(C(F)(F)F)c4)ccnc3O2)cc1 (stereo unspecified)
 : -7.2%, -7
65. OC(c1ccc(CN2CCCCC2)cc1)c1ncc(-c2ccccc2F)[nH]1 (stereo unspecified)
 : -0.3%, -3
66. COC(=O)[C@]12CCCCC=C1N(CCc1ccc(OC)c(OC)c1)C(=O)[C@H](CC(=O)NCCC(C)C)C2
 : -1.1%, -6
67. CCNC(=O)C1(C)CCN(C(=O)c2ccc3c(c2)CCO3)C1 (stereo unspecified)
 : 2.3%, 11
68. CC1(C(=O)NCc2ccccc2Br)CCN1C(=O)Cc1ccc(-c2ccccc2)cc1 (stereo unspecified)
 : -0.2%, 0
69. CCNC(=O)C1(C)CCCN(Cc2ccc(Oc3ccccc3)cc2)C1 (stereo unspecified)
 : 0.1%, 1
70. O=C(NCC1CCCCC1)c1csc([C@@H]2O[C@H](CO)[C@H](O)[C@H](O)[C@H]2O)n1
 : 0.3%, 10
71. COc1ccc(OC)c(CN2C(=O)CSCC2(C)C(=O)NCc2ccccc2)c1 (stereo unspecified)
 : 0.6%, -4
72. CC1(C(=O)Nc2ccc(Cl)c(Cl)c2)CCN1C(=O)Cc1ccc(-c2ccccc2)cc1 (stereo unspecified)
 : -0.2%, 12
73. COc1cccc(C(NC(C)=O)c2nc(-c3ccc(F)cc3OC)cs2)c1 (stereo unspecified)
 : 1.9%, -3
74. COc1ccc(Cl)cc1-c1cc(C(=O)NCc2cc(C(F)(F)F)cc(C(F)(F)F)c2)[nH]n1
 : ?, 4
75. CC(C)C[C@@H]1Cc2[nH][nH]c(=O)c2[C@H](C(C)C)O1
 : -2.7%, 0
76. CC(=O)NC(c1ccccc1)c1nc(-c2ccccc2)cs1 (stereo unspecified)
 : 1.8%, 4
77. CCCCCNC(=O)C(c1ccc(C(F)(F)F)cc1)n1c(=O)c(-c2ccco2)nc2ccccc21 (stereo unspecified)
 : 4.3%, -2
78. CC(=O)Nc1cccc(-c2cccc3nccn23)c1
 : 5.2%, -1
79. CCc1nc2c(OCC3CCCCC3)cccn2c1N(C)C(=O)c1ccccc1F
 : -0.7%, -4
80. CCc1nc2ccc(C(=O)Nc3cccc(OCC(=O)N(C)C)c3)cn2c1N(CC)CCOC
 : -0.4%, -1
81. O=C1Nc2ccccc2-n2nnnc2C1N1CCN(C(=O)C2CCCO2)CC1 (stereo unspecified)
 : -3.6%, 0
82. CC(O)(c1cccc(F)c1)c1nc(-c2cccc(F)c2)cs1 (stereo unspecified)
 : -2.3%, 8
83. CSc1ccc(CN2CCC2(C)C(=O)NCc2ccc3c(c2)OCO3)cc1 (stereo unspecified)
 : 0.1%, -10
84. CN(C)CCNc1ncnc2c1ncn2[C@H]1CN(Cc2ccc(F)cc2)C[C@@H](CO)O1
 : -1.6%, 0
85. Cc1cc(Br)cn2c(Cc3ccccc3C(F)(F)F)c(-c3ccccc3)nc12
 : 1.0%, -17
86. CCCCNC(=O)C1(C)CCN1C(=O)c1ccc2sccc2c1 (stereo unspecified)
 : -0.4%, 6
87. CCOC1=C2[C@@H](CN(S(=O)(=O)c3ccc(C)cc3)[C@H]2c2ccc(CC)cc2)[C@H]2C(=O)N(C)C(=O)[C@H]2C1
 : 0.2%, 3

Full records from above.
`COc1ccc(C)cc1-n1nnnc1SCc1nc(N)nc(N(C)C)n1` across the screens: ClpP mod = -3.1%; CtBP-E1A inh = -26
`CCOC(=O)C1=CCC(c2cc3ccc(OC)cc3n2C(=O)OC(C)(C)C)NC1` (stereo unspecified) across the screens: ClpP mod = -12%; CtBP-E1A inh = -20
`O=C1Nc2ccccc2-n2nnnc2C1N1CCN(C(=O)C2CCCO2)CC1` (stereo unspecified) across the screens: ClpP mod = -3.6%; CtBP-E1A inh = 0
